# Screening results as filed in PubChem.
# CBX7 AlphaScr – CBX7 inhibition, primary AlphaScreen | O95931 | AlphaScreen His6-CBX7 / biotin-H3K27me3 peptide binding; hits give low values | normalised signal (fraction of DMSO) (test concentration not listed) | actives 1.1% (n = 66,000) | AID 1224903; in the data active = normalised signal below about 0.5;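 note: 100 nL library stock added to about 20 µL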
# Target sequence (O95931 whole entry, looked up): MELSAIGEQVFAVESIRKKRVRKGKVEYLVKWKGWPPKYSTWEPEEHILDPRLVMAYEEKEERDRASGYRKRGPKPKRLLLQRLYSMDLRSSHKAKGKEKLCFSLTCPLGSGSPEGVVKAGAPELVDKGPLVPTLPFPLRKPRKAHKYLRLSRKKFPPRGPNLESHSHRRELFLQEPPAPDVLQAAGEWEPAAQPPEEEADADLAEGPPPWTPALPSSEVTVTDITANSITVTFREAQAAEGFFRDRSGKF
# CBX7 AlphaScr z-score – recorded beside CBX7 AlphaScr, whose call it bears; z-score; measured here: z-score of CBX7 signal; some inactives read as strong as hits; reference of the scale not given here;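 same signal on another scale; lower means less binding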
# * hit, by the source's call; & = joins results of further samples. Some of the compounds tested, so the mix of outcomes need not match the whole.
SMILES,CBX7 AlphaScr,CBX7 AlphaScr z-score
CCCN(CCC)S(=O)(=O)c1ccc(C(=O)Nc2sc3c(c2C(=O)OC)CCN(C)C3)cc1,1.03,1.53
O=C(Cc1c(C(=O)O)[nH]c2ccc(Cl)cc12)Nc1nc2ccccc2s1,0.936,-1.24
O=[N+]([O-])c1cc(-n2nc(-c3ccc(Cl)cc3)cc2-c2ccc(Cl)cc2)ccc1Cl,0.658,-5.25
Cc1ccc(S(=O)(=O)N2CC=C(C(=O)Nc3cccc(F)c3)CC2)cc1,1.13,1.47
O=C(Cn1cc(S(=O)(=O)c2ccccc2)c(=O)c2cc(F)ccc21)Nc1ccc2c(c1)OCCO2,0.913,-2.83
OCCN1CCN(CCCN2c3ccccc3Sc3ccc(C(F)(F)F)cc32)CC1,1.36,0.82
Cc1csc(NC(=O)C2CCN(C(=O)c3cnn(-c4ccccc4)c3-n3cccc3)CC2)n1,0.971,-1.17
Cc1ccc(C)c(Cn2cnc3cc(C)c(C)cc32)c1,0.947,-2.1
CC(C)(C)c1cc(-c2nc3ccccc3[nH]2)cc(C(C)(C)C)c1O,1.14,1
Cc1sc(NC(=O)c2cccc(Oc3ccccc3)c2)nc1-c1ccccc1,0.909,-3.51
CC(C)Oc1ccc(C(=O)Nc2c3c(nn2-c2ccc(F)cc2)CSC3)cc1,1.07,1.23
O=C(NCc1ccc(F)cc1)c1cc(-c2ccco2)on1,1,0.0821
CCN(CC)c1ccc(C(=O)Nc2ccc(-c3nc4ccccc4[nH]3)cc2)cc1,0.933,-0.507
COc1ccc(-n2nc(C(=O)Nc3cc(Cl)c(OC)cc3OC)c3ccccc3c2=O)c(OC)c1,1.03,0.742
COC(=O)c1c(NC(=O)c2cnccn2)sc2c1CCC(C)C2 (stereo not given),1.09,2.21
CCN1CCN(C(=O)CN2C(=O)COc3ccccc32)CC1,1.02,0.634
O=C(NCc1nc2ccccc2[nH]1)c1cccs1,1.1,1.02
Clc1ccccc1-c1nc(Nc2ccc3c(c2)OCCO3)c2ccccc2n1,1.06,1.88
COc1ccccc1NC(=O)NCCCN1CCN(c2ccccc2F)CC1,1.22,1.69
Cc1ccc(-c2csc(NC(=O)CN3C(=O)CCC3=O)n2)cc1C,1.09,0.75
O=C1CCc2cc(S(=O)(=O)N3CC=C(c4ccccc4)CC3)ccc2N1,0.923,-1.84
COc1ccccc1CNC(=O)c1oc2ccc(S(=O)(=O)N3CCC(C)CC3)cc2c1C,0.942,-0.554
OC(c1ccccc1)(c1ccccc1)c1cccnc1N1CCCCC1,1.07,1.27
CCOC(=O)c1cc(-c2ccccc2)n(CCC(=O)Nc2cccc(C)c2C)c1C,0.971,-0.311
COc1ccc(Nc2nc3ccccc3nc2-n2nc(C)cc2C)cc1Cl,2.11,22.2
CCOC(=O)c1ccc(NC(=O)CSc2nccn2-c2cccc(Cl)c2)cc1,0.942,-0.458
CCOC(=O)N1CCC(Nc2c(N3CCCC3)c(=O)c2=O)CC1,1.02,0.389
Fc1cccc(-c2nc(-c3ccccc3)c(-c3cccs3)[nH]2)c1,0.971,-0.179
CCCCCCn1c(=O)c(-c2nc3ccccc3c(=O)[nH]2)c(O)c2ccccc21,1.06,0.857
Cc1cc(C)cc(Nc2cc(C(=O)NC3CCCC3)c3ccccc3n2)c1,1.03,0.76
O=C(c1ccc(Cl)cc1)N1CCN(c2ccc3nncn3n2)CC1,0.98,-0.351
COc1cccc(NC(=O)N2CC=C(n3c(=O)[nH]c4ccccc43)CC2)c1,1.01,0.444
CC(C)(CC(=O)N1CC=C(c2ccccc2)CC1)CC1=NS(=O)(=O)c2ccccc2N1,0.747,-5.38
Cc1oc(-c2ccc(Cl)cc2)nc1CSCC(=O)N1CCCCC1,1.15,1.56
CC1CCC(NC(=O)CCCN2C(=O)CSc3ncccc32)CC1 (stereo not given),1.13,1.87
Cc1sc(NC(=O)Cn2nc(C(F)(F)F)cc2C)nc1-c1ccccc1,1.03,0.25
CCCCCn1c(=N)n(CC(O)COc2ccccc2OC)c2ccccc21 (stereo not given),0.912,-2.01
CC(NC(=O)c1cccc(F)c1)C(c1cccs1)N1CCN(Cc2ccccc2)CC1 (stereo not given),0.854,-1.54
CC1CCCN(C(C(=O)Nc2ccc3c(c2)OCO3)c2ccccc2)C1 (stereo not given),0.87,-0.81
Cc1nc(SCC(=O)Nc2ccnc3ccccc23)[nH]c(=O)c1C,1.18,2.27
COc1ccc(CNc2nc(-c3ccc(OC)c(OC)c3)cc(C(F)(F)F)n2)cc1,1.13,5.16
O=C(O)CSc1ncnc2c1oc1ccccc12,0.947,-0.846
Cc1nc2c(-c3ccc(F)cc3)c(C)nn2c(C)c1CCC(=O)NC1CCCC1,1.04,1.11
Cc1ccc(Cc2c(C)nc3c(C(=O)N4CCN(c5cccc(C)c5)C(C)C4)cnn3c2C)cc1 (stereo not given),0.627,-10.3
CC(NC(=O)c1nn(C)c(=O)c2ccccc12)c1ccccc1 (stereo not given),1.07,2.73
Cc1cccc(Cn2cnc3cc(C)c(C)cc32)c1,0.98,-0.81
Cc1nnc(SCc2nc(-c3ccccc3)no2)n1-c1ccccc1,0.97,-0.677
Cc1cccc(OCc2nc(C#N)c(NCc3ccc(F)cc3)o2)c1,0.87,-5.67
Cn1nc(-c2ccc(N3CCCCC3)c(NC(=O)c3ccc(Cl)cc3)c2)c2ccccc2c1=O,0.588,-1.79
CCOc1ccc2nc(N3CCCC(C(=O)NCCCN(CC)Cc4ccccc4)C3)sc2c1 (stereo not given),0.813,-5.05
Cc1ccc(-c2n[nH]c(=O)c3ccccc23)cc1S(=O)(=O)N1CCCCC1,1.17,4.28
COc1ccc(-c2cc(C(=O)NCC3CCCO3)c3cc(C(C)C)ccc3n2)cc1 (stereo not given),0.679,-0.361
COc1ccc(CC(=O)Nc2ccc3nc4n(c(=O)c3c2)CCCCC4)cc1OC,1.02,0.554
Cc1ccc(N2C(=O)CC(N3CCN(C(c4ccccc4)c4ccccc4)CC3)C2=O)c(C)c1 (stereo not given),0.813,-2.96
Cc1cccc2[nH]c(S(=O)(=O)Cc3ccc(F)cc3Cl)nc12,1.01,0.29
CCN1CCN(C(=O)c2c(-c3c(Cl)cccc3Cl)noc2C)CC1,1.04,0.042
Cc1ccc2nc(SCC(=O)Nc3ccccc3C(N)=O)[nH]c2c1,1.1,2.77
CCCOc1ccc(N2C(=O)CC(NCc3cccnc3)C2=O)cc1 (stereo not given),1,0.0281
COC(=O)c1c(NC(=O)CN2C(=O)c3ccccc3S2(=O)=O)sc2c1CCCC2,1.07,1.92
O=C(Nc1ccc(S(=O)(=O)Nc2nccc(/C=C/c3ccc(Cl)cc3)n2)cc1)c1ccccc1,1,0.00885

# 7 records drawn at random from the list so far, as already listed:
SMILES,CBX7 AlphaScr,CBX7 AlphaScr z-score
COc1ccc(CC(=O)Nc2ccc3nc4n(c(=O)c3c2)CCCCC4)cc1OC,1.02,0.554
O=C(Nc1ccc(S(=O)(=O)Nc2nccc(/C=C/c3ccc(Cl)cc3)n2)cc1)c1ccccc1,1,0.00885
CCCN(CCC)S(=O)(=O)c1ccc(C(=O)Nc2sc3c(c2C(=O)OC)CCN(C)C3)cc1,1.03,1.53
CCOC(=O)c1ccc(NC(=O)CSc2nccn2-c2cccc(Cl)c2)cc1,0.942,-0.458
CC(NC(=O)c1nn(C)c(=O)c2ccccc12)c1ccccc1 (stereo not given),1.07,2.73
CC(NC(=O)c1cccc(F)c1)C(c1cccs1)N1CCN(Cc2ccccc2)CC1 (stereo not given),0.854,-1.54
Cc1ccc(Cc2c(C)nc3c(C(=O)N4CCN(c5cccc(C)c5)C(C)C4)cnn3c2C)cc1 (stereo not given),0.627,-10.3

# Following part:
SMILES,CBX7 AlphaScr,CBX7 AlphaScr z-score
CCN(c1cccc(C)c1)C(C(=O)NC1CCCC1)c1ccc(Cl)cc1 (stereo not given),0.888,-2.79
COc1ccc(NC(=O)c2cccnc2Nc2cccc(F)c2)cc1,0.948,-1.85
Cc1ccc(C(NC(=O)C(C)C)c2cc(Cl)c3cccnc3c2O)cc1 (stereo not given),0.627,-1.31
O=C(CN1CCN(Cc2ccccc2Cl)C1=O)NCCCN1CCCC1=O,0.995,-0.075
CCOC(=O)c1cccc(NC(=O)CCNS(=O)(=O)c2ccc3c(c2)CCC(=O)N3)c1,1.06,2.11
O=C(CCc1nc2ccccc2n(Cc2c(F)cccc2Cl)c1=O)NCCc1ccc(Cl)cc1,1.01,0.101
O=C(CCn1nc(-c2ccc(Cl)cc2)ccc1=O)NCCCN1CCCCC1,1.09,1.63
Cc1ccc(Cn2nnc3c(=O)n(Cc4ccccc4Cl)cnc32)cc1,0.985,-0.241
O=C(Cc1cccc2ccccc12)Nc1ccc(Oc2ncnc3sc4c(c23)CCCC4)cc1,1.06,0.121
Cc1ccc(-c2noc(CCC(=O)Nc3ccc(F)cc3)n2)cc1,1.01,0.0136
COc1ccc(Br)cc1CNC(=O)C1CCC(=O)N1C(C)C (stereo not given),0.966,-0.395
Cc1ccc2ncnc(NCc3cccnc3)c2c1,0.982,-0.304
CC(=O)Nc1nsc(Nc2ccc(Cl)c(Cl)c2)n1,0.937,-0.221
COCCNC(=O)c1cc(-c2ccc(O)cc2)on1,1,0.159
Cc1ccc(-c2cc(C(=O)Nc3ccc(F)cc3)c3ccccc3n2)cc1,0.912,-0.667
CCOC(=O)c1c(NC(=O)c2cc3ccccc3o2)sc2c1CCC2,1.04,0.748
COc1ccc(-c2noc(CCC(=O)Nc3ccc(OC)c(OC)c3)n2)cc1,1.01,0.208
CCOC(=O)c1oc2ccccc2c1NC(=O)c1cccs1,1.08,2.86
CC(=O)N1CCc2cc(S(=O)(=O)Nc3ccccc3N3CCN(C)CC3)ccc21,1.16,1.2
COc1ccc(-c2nc(-c3ccc(Br)cc3)c(-c3ccc(Br)cc3)[nH]2)cc1,0.56,-6.96
CN(C)c1ccc(-c2nc3cnccn3c2Nc2cccc(C(F)(F)F)c2)cc1,1.02,0.518
CCOc1ccc2nc(NC(=O)c3ccccc3Oc3ccccc3)sc2c1,1.52,1.2
CCC(=O)N1CCc2cc(S(=O)(=O)N3CCN(C4CCCCC4)CC3)ccc21,1.13,1.07
CCN1CCN(C(=O)c2cnc(N3CCN(c4ncccn4)CC3)c3ccccc23)CC1,1.09,0.588
CCN(CC)S(=O)(=O)c1ccc2c(c1)N(CC(=O)Nc1ccc(C)cn1)C(=O)CO2,1.04,1.91
Cc1n[nH]c(C)c1CCCOc1cccc(Cl)c1,0.922,-1.85
COc1cccc(NC(=O)c2cnn(-c3ccc(C)cc3)c2C2CCN(C(=O)OC(C)(C)C)CC2)c1,0.978,-0.735
COc1ccc(-c2nnc(Nc3ccc4c(c3)ncn4-c3ccc(OC)cc3)c3ccccc23)cc1,1.22&0.942,1.61&-0.555
COc1ccc(C)cc1NC(=O)C(=O)NCCc1ccc(OC)c(OC)c1,0.957,-1.18
CC1CCN(CCNS(=O)(=O)c2ccc3c(c2)CCC(=O)N3)CC1,1.05,2.44
COc1cc(C2NC(=O)c3c(sc4c3CCN(C)C4)N2)cc(OC)c1OC (stereo not given),0.976,-0.417
CC(C)c1ccc(NC(=O)C(Cc2ccccc2)NS(=O)(=O)c2ccc3c(c2)CCC(=O)N3)cc1 (stereo not given),1,0.0929
COc1cc2c(cc1OC)C1C(C(=O)Nc3ccc(Cl)cn3)c3ccccc3C(=O)N1CC2 (stereo not given),0.933,-1.8
COC(=O)c1ccc2c(c1)N(Cc1ccccc1F)C(=O)c1ccccc1S2=O (stereo not given),1.03,1.15
COc1ccc(CN2CCN(Cc3cccc(Br)c3)CC2)cc1OC,0.923,-1.31
CC1=C(C(=O)Nc2ccc(C)cn2)C(c2ccccc2C(F)(F)F)C2=C(CC(C)(C)CC2=O)N1 (stereo not given),1.01,0.0162
O=C(c1ccccc1)c1cn(Cc2ccccc2)c2cc3c(cc2c1=O)OCCO3,0.762,-0.839
COc1ccc(C2C(=O)N(C3CCCCC3)CC(=O)N2Cc2ccc(C)cc2)cc1 (stereo not given),1,0.00585
CCC(Oc1ccccc1)C(=O)Nc1nc(-c2ccccc2)c(C)s1 (stereo not given),0.925,-1.26
O=C(NC1CCCC1)c1ccc2c(c1)N(Cc1ccccc1)CCS2,0.82,-0.239
CCOCCCNC(=O)C1CCN(c2cc(C)nc3c(-c4ccc(OC)c(OC)c4)c(C)nn23)CC1,0.983,-0.043
O=C(COc1ccc(Cl)cc1Cl)NCC12C=CC(O1)C1C(=O)N(c3ccc(Cl)cc3)C(=O)C12 (stereo not given),1.11,0.794
COc1cccc(CN2C(=O)c3ccccc3C2C(=O)NCCc2ccccc2)c1 (stereo not given),1.06,2.24
COc1ccc(C2C(Oc3ccccc3)C(=O)N2c2ccc(F)cc2)cc1OC (stereo not given),0.991,-0.0715
Cc1cccc2nc(-c3ccc(Cl)cc3)c(Nc3ccc4c(c3)OCO4)n12,0.677,-5.29
COc1cc(OC)c(NC2c3ccccc3C(=O)N2c2ccc(C)cn2)cc1Cl (stereo not given),0.414*,-7.85*
O=C(CSc1nnc(Cc2cc(=O)[nH]c(=O)[nH]2)n1-c1ccc(F)cc1)Nc1cccc(F)c1,1,0.108
Cc1ccc(NC(=O)c2n[nH]c(=O)c3ccccc23)cc1F,1.19,1.18
Cc1ccc(OCC(=O)Nc2cccc(-c3nc4cc(C)ccc4o3)c2)cc1,0.897,-0.99

# Copied from the entries so far, five compounds:
SMILES,CBX7 AlphaScr,CBX7 AlphaScr z-score
O=C(COc1ccc(Cl)cc1Cl)NCC12C=CC(O1)C1C(=O)N(c3ccc(Cl)cc3)C(=O)C12 (stereo not given),1.11,0.794
COc1cccc(CN2C(=O)c3ccccc3C2C(=O)NCCc2ccccc2)c1 (stereo not given),1.06,2.24
COc1ccc(C2C(Oc3ccccc3)C(=O)N2c2ccc(F)cc2)cc1OC (stereo not given),0.991,-0.0715
Cc1cccc2nc(-c3ccc(Cl)cc3)c(Nc3ccc4c(c3)OCO4)n12,0.677,-5.29
COc1cc(OC)c(NC2c3ccccc3C(=O)N2c2ccc(C)cn2)cc1Cl (stereo not given),0.414*,-7.85*
